TRPML1 inh = qHTS for Inhibitors of the Human Mucolipin Transient Receptor Potential 1 (TRPML1). Mucolipin-1 (Homo sapiens), Q9GZU1. TRPML1-inducible cells, Ca2+ dye fluorescence, FDSS; active compounds read low; inhibition of EC80 agonist-evoked calcium signal. activity change, negative = inhibition, % (concentration not given with the values). actives 0.02% (n = 390,000). AID 624415, 2012; in the data active means activity change below about -50%; inconclusive means about -30% to -50%; inactive means above about -30%;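 further: stimulus is agonist 54-4 at its EC80 concentration; on the % scale 0 is the no-effect control and ±100 the full control effect; the text of the record puts the active cut at -80%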
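Calcium fluorescence in TRPML1-DL cells induced overnight with Tet: a 110 s read after compound pin addition, then a 110 s antagonist read after challenge with 54-4 at 4 uM final (EC80).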
TRPV1 potentiator = HTS Assay for Compounds that Act as Potentiators of the Vanilloid Receptor 1; Transient receptor potential cation channel subfamily V member 1 (Homo sapiens), Q8NER1; TRPV1-expressing cells, Fluo-8 calcium influx, capsaicin EC20 potentiation; host cell line not named in the record; control for the full effect not named in the record; potentiation, % at 8.33 µM; actives 0.02% (n = 320,000); active means potentiation above 80%; inconclusive means 30% to 80%; inactive means below 30%; further: 0% is about no effect
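Cells expressing TRPV1 were dye-loaded with Fluo-8 and read kinetically: 10 s baseline, 3 min after compound (agonist portion), then 2 min after EC20 capsaicin (allosteric enhancer portion). Calcium-bound dye fluorescence at 480/520 nm.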
Six1-Eya2 inh = qHTS Assay for Inhibitors of the Six1/Eya2 Interaction | AlphaScreen GST-Six1/His-Eya2 binding, biochemical; active compounds read low; control for the full effect not named in the record | activity change, % (test concentration not listed) | actives 0.56% (n = 360,000) | AID 651725, 2012; in the data active = activity change below about -65%; inconclusive = about -30% to -65%; inactive = above about -30%; further: on the % scale 0 is the no-effect control and ±100 the full control effect
Target sequence (O00167 whole entry, looked up): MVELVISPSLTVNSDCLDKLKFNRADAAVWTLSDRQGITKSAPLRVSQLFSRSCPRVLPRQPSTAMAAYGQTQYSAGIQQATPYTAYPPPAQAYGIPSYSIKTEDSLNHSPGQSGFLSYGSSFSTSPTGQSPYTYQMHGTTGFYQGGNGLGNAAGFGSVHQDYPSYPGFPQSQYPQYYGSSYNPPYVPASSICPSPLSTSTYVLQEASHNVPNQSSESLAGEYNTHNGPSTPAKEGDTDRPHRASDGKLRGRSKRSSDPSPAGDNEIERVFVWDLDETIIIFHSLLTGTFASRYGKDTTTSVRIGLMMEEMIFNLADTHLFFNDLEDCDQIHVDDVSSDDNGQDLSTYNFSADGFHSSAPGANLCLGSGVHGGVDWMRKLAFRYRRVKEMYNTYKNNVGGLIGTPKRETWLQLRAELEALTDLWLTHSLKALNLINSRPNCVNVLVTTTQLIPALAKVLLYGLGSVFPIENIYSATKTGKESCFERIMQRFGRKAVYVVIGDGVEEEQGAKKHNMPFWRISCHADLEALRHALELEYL
Target sequence (Q15475 whole entry, looked up): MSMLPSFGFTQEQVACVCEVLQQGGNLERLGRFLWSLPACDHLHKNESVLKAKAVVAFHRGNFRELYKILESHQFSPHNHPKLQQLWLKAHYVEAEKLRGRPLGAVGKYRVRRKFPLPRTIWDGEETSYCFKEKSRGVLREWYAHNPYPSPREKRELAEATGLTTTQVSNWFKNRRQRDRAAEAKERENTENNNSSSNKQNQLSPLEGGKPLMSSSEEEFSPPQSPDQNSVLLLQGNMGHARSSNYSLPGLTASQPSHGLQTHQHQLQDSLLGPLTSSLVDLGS
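AlphaScreen with GST-Six1 and His-Eya2 (5X mix: 250 nM and 500 nM), glutathione donor and nickel acceptor beads; buffer 50 mM Tris pH 8.0, 300 mM NaCl, 1 mM TCEP; 1 h at 37 C in the dark.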
CtBP-E1A inh = qHTS Assay for Inhibitors of the CtBP/E1A Interaction; actives 0.49% (n = 340,000); activity change, % (no concentration beside the values); CtBP / adenovirus E1A interaction (AlphaScreen); AlphaScreen GST-E1A/His-CtBP binding, 1536-well; active compounds read low; control for the full effect not named in the record; in the data active means activity change below about -65%; inconclusive means about -30% to -65%; inactive means above about -30%; further: on the % scale 0 is the no-effect control and ±100 the full control effect
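Steps: dispense buffer (Tris pH 8.0, NaCl 300 mM, TCEP 1 mM, BSA, Tween 20); add 5X protein mix (GST-E1A, His-CtBP, 125 nM each); pin 23 nL compound; 2 h at 37 °C, dark; add 5X beads (50 ug/mL); 1 h; read.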
D2 PAM = Beta-Arrestin HTS for Positive Allosteric Modulators of the Human D2 Dopamine Receptor: Potentiators | D(2) dopamine receptor (Homo sapiens), P14416 | DiscoveRx D2 beta-arrestin cells, luminescence, 90 min; 100% = 57 uM dopamine signal | potentiation, % (no concentration beside the values) | actives 0.23% (n = 360,000); active = potentiation of 50% or more; inconclusive = 30% to 50%; inactive = 30% or less;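 further: compound concentration not given in the record; tested on top of an EC20 dose of dopamine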
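PathHunter D2 cells, attached overnight at 37 deg C, received compound in DMSO plus dopamine at EC20 (50 nM final) for 90 min at 37 deg C. Beta-arrestin recruitment was read as luminescence after 1 h with detection reagent at ambient temperature.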
TRPML1 agonist = qHTS for Agonists of the Human Mucolipin Transient Receptor Potential 1 (TRPML1) | TRPML1-expressing cells, Ca2+ dye fluorescence, FDSS; host cell line not named in the record; reference of the full effect not given here | AID 624414, 2012 | activation, % (test concentration not listed) | actives 0.12% (n = 410,000) | Mucolipin-1 (Homo sapiens), Q9GZU1; in the data active = activation above about 50%; inconclusive = about 30% to 50%; inactive = below about 30%; further: 0% is about no effect; the text of the record puts the active cut at 80%
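Kinetic FDSS Ca2+ read in Tet-induced TRPML1-DL cells (ABD Ca8 dye plus quencher, 45-90 min RT loading): baseline, then compound, then 110 s agonist window; EC80 agonist 54-4 at 4uM final added afterwards for a 110 s antagonist window.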
Active calls of the source: *; ? = inconclusive; / = not tested or not shown; & = joins results of further samples.

1: O=C(Nc1cccc(NC(=S)NC(=O)c2cccs2)c1)c1ccccc1
2: O=C(C1CCCCC1)N1CCc2[nH]c3ccc(F)cc3c2C1
3: Cc1ccc(C(=O)NCc2ccco2)cc1Br
4: O=C1N=C(N2CCOCC2)S/C1=C\c1ccc(-c2ccccc2Cl)o1
5: COc1ccc(C)cc1S(=O)(=O)N(CC(=O)NCc1ccco1)c1ccc(C)cc1
6: COc1ccc(C=NNC(=O)c2cc(C)oc2C)cc1O
7: O=[N+]([O-])c1ccc(OCCCCN2CCCCC2)cc1
8: Cc1cccc(NC(=O)c2sc(C)nc2C)c1
Compound,1,2,3,4,5,6,7,8
D2 PAM,-5,-11,-7,-9,-10,-15,-35,-8
CtBP-E1A inh,15,-1,31,6,1,-5,-16,5
TRPML1 inh,-9,30,3,31,16,-10,-1,1
Six1-Eya2 inh,1,3,21,-1,-6,0,1,1
TRPV1 potentiator,9,-16,-1,-15,-18,/,-2,28
TRPML1 agonist,0.1,0.9,0.2,0.2,0.5,1.0,0.4,-0.3

9: COc1ccc(OCC(=O)Nc2nc3ccc(NC(C)=O)cc3s2)cc1
10: COC(=O)c1c(NC(C)=O)sc(C(=O)Nc2ccccc2)c1C
11: Cn1c(=O)c2c(nc(NCc3ccccc3)n2C)n(C)c1=O
12: COc1ccc(-c2nc3c(c(=O)c4ccccc4n3C)c(=O)n2Cc2ccccc2)cc1
13: COCC(=O)N(CCc1ccccc1)Cc1cc2cc(C)ccc2nc1Cl
14: COc1ccccc1C(=O)COC(=O)c1cccs1
15: COc1ccc(C(=O)ON=C2C=C(C)C(=O)C(C)=C2)cc1
16: COC(=O)c1ccc([C@@H]2C[C@H]3CN(Cc4cccnc4)C(=O)[C@]34CCCN24)cc1
Compound,9,10,11,12,13,14,15,16
D2 PAM,-4,1,-6,-6,-1,3,-4,-5
CtBP-E1A inh,-15,0,-12,-1,0,17,/,10
TRPML1 inh,-8,21,-5,18,6,18,0,14
Six1-Eya2 inh,-18,0,-13,8,-1,13,0,2
TRPV1 potentiator,7,-4,4,6,-16,/,-23,-8
TRPML1 agonist,-0.3,-0.1,-0.6,0.4,0.1,1.7,0.0,-0.4

Given with two lines to a compound: entries from further up
The line under a structure holds: D2 PAM | CtBP-E1A inh | TRPML1 inh | Six1-Eya2 inh | TRPV1 potentiator | TRPML1 agonist
10	COC(=O)c1c(NC(C)=O)sc(C(=O)Nc2ccccc2)c1C
 : 1 | 0 | 21 | 0 | -4 | -0.1
11	Cn1c(=O)c2c(nc(NCc3ccccc3)n2C)n(C)c1=O
 : -6 | -12 | -5 | -13 | 4 | -0.6

Going on with the list.
17: COc1ccc(NC(=O)CSc2nc3c(sc4ccccc43)c(=O)n2CCCN2CCCC2)cc1
18: CC(C)CNC(=S)NC1CCCC1
19: C[C@@H](C(=O)OCC(=O)c1ccccc1)N1C(=O)C2CCCCC2C1=O (stereo partly specified)
20: CN(C)S(=O)(=O)c1ccc(N2CCCC2)c(C(=O)Nc2ccccc2Br)c1
21: CCn1c(-c2ccc([N+](=O)[O-])cc2)n[nH]c1=S
22: Cc1nc2ccccc2c(C)c1C(=O)c1ccc(F)cc1
23: COCCCNC(=O)c1cc(-c2cccnc2)nc2ccc(S(=O)(=O)N3CCCCCC3)cc12
24: CCCNC(=O)CN1C(=O)COc2ccc(S(=O)(=O)N3CCCCCC3)cc21
Compound,17,18,19,20,21,22,23,24
D2 PAM,-21,8,-4,-2,-6,6,-5,-2
CtBP-E1A inh,-13,3,4,1,-8,-13,-11,1
TRPML1 inh,0,-3,-3,2,1,10,3,3&-12
Six1-Eya2 inh,-11,1,5,3,-6,-1,3,0
TRPV1 potentiator,6,20,/,2,3,0,?,0
TRPML1 agonist,-0.6,-0.6,0.0,-0.2,-0.4,0.0,-0.5,-1.0&-0.6

25: Cc1ccc2cc(F)ccc2n1
26: COc1ccc(C(CNC(=O)COc2ccc(Cl)c(C)c2)N2CCCCC2)cc1 (stereo unspecified)
27: CCOC(=O)N1CCN(C(=O)CN(c2cccc(OC)c2)S(C)(=O)=O)CC1
28: Cc1cc(O)c(C(C)C)cc1N=Cc1ccc([N+](=O)[O-])cc1
29: O=C(O)c1cc(-c2ccc(Cl)cc2)n(-c2ccc(F)cc2)n1
30: Cc1c(C(=O)NCC2CCCO2)sc2nc(-c3ccc(F)cc3)cn12 (stereo unspecified)
31: O=C(O)Cc1ccc(N2N=C(c3ccccc3)CC2=O)cc1
32: OCCC1CN(Cc2cccn2-c2ccccn2)CCN1Cc1ccccc1 (stereo unspecified)
Compound,25,26,27,28,29,30,31,32
D2 PAM,/,-34,7,0,-1,-5,-7,-1
CtBP-E1A inh,-11,/,3,1,7,-27,2,/
TRPML1 inh,/,32,12,4,6,-2,/,39
Six1-Eya2 inh,-19,-12,1,-16,-4,-6,6,-1
TRPV1 potentiator,/,-8,0,/,10,4,/,2
TRPML1 agonist,1.2,1.0,-0.6,-0.3,0.6,0.8,-0.9,0.8

33: CCC(=O)N1CCCc2cc(S(=O)(=O)NCc3cccs3)ccc21
34: COc1ccc2[nH]cc(C(=O)CN3CCCC(C)C3)c2c1 (stereo unspecified)
35: COc1ccc(/C=N/n2c(-c3cc(C)[nH]n3)n[nH]c2=S)cc1
36: CNS(=O)(=O)c1c(C)cc(C)c(N(C)S(=O)(=O)c2ccccc2)c1C
37: COc1ccccc1CN1CC(C(=O)NCCN2CCOC2=O)CCC1=O (stereo unspecified)
38: Cc1cc(C)nc(NC(=O)Nc2ccc(F)cc2F)n1
39: CN(C)c1nc(SCC(=O)Nc2ccc(Cl)c(Cl)c2)nc(N2CCOCC2)n1
Compound,33,34,35,36,37,38,39
D2 PAM,-3,-1,-19,-3,-5,9,-7
CtBP-E1A inh,5,8,0,-14,6,7,11
TRPML1 inh,5,-9,8,16,11,7,8
Six1-Eya2 inh,0,2,0,7,0,-1,-7
TRPV1 potentiator,-7,1,3,15,-9,-9,26
TRPML1 agonist,-1.0,-0.4,-0.4,0.6,-0.3,3.8,1.1

Screen by screen, as entered above:
Nos. 31–38 in TRPV1 potentiator: /, 2, -7, 1, 3, 15, -9, -9
Nos. 31–38 in Six1-Eya2 inh: 6, -1, 0, 2, 0, 7, 0, -1
Nos. 31–38 in TRPML1 agonist: -0.9, 0.8, -1.0, -0.4, -0.4, 0.6, -0.3, 3.8

Just TRPML1 agonist, for 5 of the compounds above:
No.	Structure	TRPML1 agonist
36	CNS(=O)(=O)c1c(C)cc(C)c(N(C)S(=O)(=O)c2ccccc2)c1C	0.6
38	Cc1cc(C)nc(NC(=O)Nc2ccc(F)cc2F)n1	3.8
37	COc1ccccc1CN1CC(C(=O)NCCN2CCOC2=O)CCC1=O (stereo unspecified)	-0.3
33	CCC(=O)N1CCCc2cc(S(=O)(=O)NCc3cccs3)ccc21	-1.0
39	CN(C)c1nc(SCC(=O)Nc2ccc(Cl)c(Cl)c2)nc(N2CCOCC2)n1	1.1
